# Mtb betalactam: beta-lactam sensitization of Mtb H37Rv | M. tuberculosis H37Rv growth with meropenem, percent inhibition; hits of this screen are not shown here | inhibition, % at 25 µM | 0.27% of 330,000 active | AID 434955;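 active means about 74% or more and at least 40 points above the plate without the antibiotic, then above 30% in a dose series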;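 further: growth measured after seven days incubation then overnight dye step; 0% = bacteria only wells and 100% = bacteria with antibiotic; twin plates without the antibiotic show which effects depend on it; some results filed as inactive read as strong as hits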
# Mtb growth: M. tuberculosis H37Rv growth inhibitors, H37Rv strain (AID 1626). M. tuberculosis H37Rv growth inhibition; higher % means a stronger effect. inhibition, % at 10 µM, or IC50 in µM where a hit was titrated. 0.95% of 220,000 active;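 active means confirmed in a dose series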;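 further: bacteria incubated seven days before Alamar blue readout; 0% = bacteria only wells and 100% = bacteria with antibiotic wells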
# RecA splice inh: Mtb RecA intein splicing inhibition. P9WHJ3. cell-free RecA intein splicing, fluorescence. inhibition, %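 (about 9 µM by stock and volumes)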. 0.75% of 290,000 active; in the data active means inhibition above about 30%;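 further: 0% = vehicle wells and 100% = reference inhibitor control wells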
# Target sequence (P9WHJ3 whole entry, looked up, canonical isoform): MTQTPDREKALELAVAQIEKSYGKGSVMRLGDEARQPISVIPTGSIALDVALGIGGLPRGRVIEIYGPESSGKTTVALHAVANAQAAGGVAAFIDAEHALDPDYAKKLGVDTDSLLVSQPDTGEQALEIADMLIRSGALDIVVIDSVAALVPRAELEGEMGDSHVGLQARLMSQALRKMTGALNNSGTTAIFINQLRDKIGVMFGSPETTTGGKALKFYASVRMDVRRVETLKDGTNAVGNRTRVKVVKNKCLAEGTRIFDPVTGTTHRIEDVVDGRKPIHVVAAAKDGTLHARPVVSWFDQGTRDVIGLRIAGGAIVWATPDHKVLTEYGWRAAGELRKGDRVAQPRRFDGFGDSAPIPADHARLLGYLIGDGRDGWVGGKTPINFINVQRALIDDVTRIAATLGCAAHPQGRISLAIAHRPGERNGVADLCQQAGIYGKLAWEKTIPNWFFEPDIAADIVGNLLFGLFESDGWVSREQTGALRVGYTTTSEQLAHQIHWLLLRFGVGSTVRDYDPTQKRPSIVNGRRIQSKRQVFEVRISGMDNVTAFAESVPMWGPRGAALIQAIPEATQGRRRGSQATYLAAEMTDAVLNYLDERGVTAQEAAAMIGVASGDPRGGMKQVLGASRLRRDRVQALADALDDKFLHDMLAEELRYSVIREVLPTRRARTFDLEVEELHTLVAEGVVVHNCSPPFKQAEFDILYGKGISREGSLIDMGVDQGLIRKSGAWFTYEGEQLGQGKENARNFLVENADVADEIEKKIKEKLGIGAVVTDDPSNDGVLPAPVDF
# Arbovirus inh: blocks arbovirus infection; inhibition, % at 10 µM; arbovirus infection cell-based antiviral screen; 0.37% of 200,000 active;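 active means inhibition from about 30%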;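 further: bluetongue infection of BSR cells; cell survival read as ATP light after 72 h; 0% = infected wells without compound and 100% = uninfected wells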
# YopH PTP inh: blocks Yersinia enterocolitica YopH tyrosine phosphatase. fluorescence Ex485/Em525. inhibition, %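 (about 10 µM by stock and volumes)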. 0.16% of 140,000 active. AID 898;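 active means inhibition of 50% or more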;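 further: controls were vehicle for no effect and minimum signal wells for full effect; inactives centre near -20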
# Arbovirus inh repeat: second read-out of Arbovirus inh, no call of its own (marks repeat the call); inhibition, %; measured here: 10K subset replicate screen; many hits read low in the repeat;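 first of two repeat runs on a subset; 0% = infected and 100% = uninfected wells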
# Numbers without * were called inactive; · = not tested or not shown.
SMILES,Mtb betalactam,Mtb growth,RecA splice inh,Arbovirus inh,YopH PTP inh,others
COc1cc(N2C(=O)c3ccccc3C2=O)c(Cl)cc1C(=O)OCC(=O)NCc1ccco1,-10,-6%,4.3,2,-44,
CCOc1ccc(NC(=O)C2CCN(S(=O)(=O)CC)CC2)cc1,-2,·,4.3,·,·,
COCC(C)NC(=O)c1cccc([N+](=O)[O-])c1 (stereo not given),0,-1%,0.5,2,·,
COc1ccc(NC(=O)CC2C(=O)N(c3ccc(OC)cc3)C(=S)N2NC(=O)c2cccc(F)c2)cc1 (stereo not given),1,2%,3.4,23,-22,
Nc1c(Cl)ncnc1N/N=C/c1ccccn1,100,77%,·,-30,-2,
COc1ccccc1-c1cc(C(=O)N/N=C\c2cn(C)nc2C)c2ccccc2n1,-5,-3%,4.2,-7,-29,
CCOC(=O)C(O)(c1ccc(N(CC)S(=O)(=O)c2ccc(C)cc2)cc1)C(F)(F)F (stereo not given),-2,-5%,5.8,-2,6,
Cc1ccc(NC(=O)C2(S(=O)(=O)c3ccc(Cl)cc3)CC2)cc1,-6,·,0.0,·,·,
COc1ccc(S(=O)(=O)N2CCCC(C(=O)NCC3CCCO3)C2)cc1OC (stereo not given),-6,·,-1.8,·,·,
CN1C(=O)C(O)(CC(=O)c2ccc(F)cc2)c2cc(Br)ccc21 (stereo not given),3,-12%,·,-14,-39,Arbovirus inh repeat=-5
Cc1cc(C)cc(Nc2cc(C)nc3nc(C)nn23)c1,2,-15%,2.1,0,-46,Arbovirus inh repeat=-6
Cc1cccc(OCC(O)CNC(=O)c2ccccc2C(=O)O)c1 (stereo not given),-10,-5%,-0.1,·,-47,
COc1ccc(Cl)cc1NC(=O)CSc1nnc(-c2ccco2)o1,-5,·,0.5,·,·,
C/C(=N\NC(=O)c1n[nH]c2c1CCC2)c1cccs1,-1,-6%,-6.9,·,·,
Cc1n[nH]c(=S)c2nn(-c3ccccc3)c(C)c12,·,·,-0.4,2,-25,
CCSc1nnc(NC(=O)/C=C/c2ccc3c(c2)OCO3)s1,-6,0%,-0.9,-32,-3,
Cc1ccccc1SCC(=O)NCCCn1ccnc1,-1,·,2.9,·,·,
O=S(=O)(CC(O)COc1ccc(Br)cc1)c1ccccc1 (stereo not given),-11,5%,0.3,·,·,
COc1ccc(S(=O)(=O)N(C)CC(=O)NCc2ccccc2)cc1OC,-2,·,-1.0,·,·,
O=C(NCc1ccccc1)c1onc(CSc2ccc(F)cc2)c1C(=O)NCc1ccccc1,0,-13%,-0.4,·,·,
COc1ccccc1NS(=O)(=O)c1ccc(N2CCOCC2)c(NC(=O)c2ccco2)c1,-4,19%,2.3,21,·,
O=C(CCc1nc(-c2ccccc2Cl)no1)Nc1cccnc1,-7,·,-0.8,·,·,
CC(/C=C/c1ccccc1)=N\NC(N)=S,97,63%,5.5,-1,-25,
O=C1NC(=O)/C(=C\c2ccc(Sc3ccc(Cl)cc3)o2)N1,-2,-3%,-2.0,-1,-25,
CCOC(=O)N1CCN(C(=O)C2CCCN(S(C)(=O)=O)C2)CC1 (stereo not given),-1,-1%,-1.2,4,-12,
CCN(CC(=O)Nc1cc(Cl)ccc1C)C(=O)c1ccc2c(c1)NC(=O)C(C)S2 (stereo not given),-4,·,2.9,·,·,
COc1ccc(S(=O)(=O)NCCCCNS(=O)(=O)c2ccc(OC)cc2)cc1,2,-1%,2.0,-4,-20,
CC(=O)c1ccc(N2CCN(c3ncc(C(F)(F)F)cc3Cl)CC2)cc1,82,3%,-1.4,7,-22,
CCOc1cc(/C=N/NC(=O)C2CCCC2)ccc1O,2,·,-2.9,·,·,
CC(OC(=O)CC1CCCCC1)C(=O)Nc1cccc(C#N)c1 (stereo not given),-16,·,-1.9,·,·,
CCCCOc1ccc(C(=O)Nc2ccncc2)cc1,56,7%,2.9,-14,-14,
CC1=NN(c2ccccc2)C(=O)/C1=C\c1cn(-c2ccccc2)nc1C,-2,-6%,11,0,·,
CCc1nnc(NC(=O)[C@@H]2CCCN2S(=O)(=O)c2ccc3c(c2)OCCO3)s1,-4,-6%,-1.0,6,5,
O=C(NCCCN1CCCC1=O)c1cc(COc2ccc(F)cc2F)on1,2,·,-1.7,·,·,
Cc1nnc(NC(=O)CSCc2ccccc2)s1,4,5%,12,1,-31,
CC(C)CC(=O)c1c[nH]c(C(=O)NCC2CCCO2)c1 (stereo not given),4,1%,2.6,4,-25,

# Some of these compounds in order of molar mass, rising.
SMILES,Mtb betalactam,Mtb growth,RecA splice inh,Arbovirus inh,YopH PTP inh,others
CCCCOc1ccc(C(=O)Nc2ccncc2)cc1,56,7%,2.9,-14,-14,
CCOc1cc(/C=N/NC(=O)C2CCCC2)ccc1O,2,·,-2.9,·,·,
CC(C)CC(=O)c1c[nH]c(C(=O)NCC2CCCO2)c1 (stereo not given),4,1%,2.6,4,-25,
CC1=NN(c2ccccc2)C(=O)/C1=C\c1cn(-c2ccccc2)nc1C,-2,-6%,11,0,·,

# The listing continues.
SMILES,Mtb betalactam,Mtb growth,RecA splice inh,Arbovirus inh,YopH PTP inh,others
O=c1c2ccccc2[nH]c2ccc(F)cc12,5,0%,-180,2,·,
COc1ccc(CCN(C(=O)/C=C/C(=O)O)C2CC(=O)N(c3ccccc3)C2=O)cc1 (stereo not given),-8,-13%,2.2,-2,·,
CCc1nnc(NC(=O)CSc2nnc(-c3ccc(NS(=O)(=O)c4ccccc4)cc3)o2)s1,-5,5%,-6.6,8,-24,
CC(C)Oc1cccc(C(=O)C2CCCN(Cc3ccc4nonc4c3)C2)c1 (stereo not given),9,4%,8.8,12,·,
CCN(CC(=O)Nc1c(F)cccc1F)C(=O)CSc1nc2ccccc2o1,-2,·,-3.4,·,·,
Fc1ccc(NCc2nnc(SCc3nnc(-c4ccccc4)o3)n2CC2CCCO2)cc1 (stereo not given),-7,-6%,-2.3,5,-34,
O=C1C2C(c3cccc(/C=C/c4ccccc4)c3)CC=CC2C(c2ccc3ccccc3c2)N1Cc1ccccc1 (stereo not given),-2,3%,-1.9,·,·,
Cn1nc(C(F)(F)F)c(-c2ccc(F)cc2)c1NC(=O)Nc1ccc(F)cc1,-3,5%,4.0,·,·,
O=c1c2ccc([N+](=O)[O-])c3cccc(c32)c2nc3ccccc3n12,-1,·,-1.6,-24,-10,
Cc1ccccc1CSCCNC(=S)Nc1ccccc1,61,51%,7.9,5,·,
CCN(CC)CCCNc1nnc(C)c(=O)[nH]1,-3,0%,-1.6,1,-18,
CNC(=O)C(=O)Nc1cc2c3c(c1)CCC(=O)N3CCC2,1,·,-0.1,·,·,

# Reprinted from the part before: 2 entries, then new ones.
SMILES,Mtb betalactam,Mtb growth,RecA splice inh,Arbovirus inh,YopH PTP inh,others
CCN(CC)CCCNc1nnc(C)c(=O)[nH]1,-3,0%,-1.6,1,-18,
CNC(=O)C(=O)Nc1cc2c3c(c1)CCC(=O)N3CCC2,1,·,-0.1,·,·,
CCN1CCN(S(=O)(=O)c2ccc(Cl)c(C(=O)NC(C)c3ccccc3Cl)c2)CC1 (stereo not given),-16,·,3.1,·,·,
COc1ccc(C(CNC(=O)C2CCN(S(=O)(=O)c3ccc(F)cc3)CC2)N(C)C)cc1 (stereo not given),-2,·,0.6,·,·,
CN(C)CCNC(=O)c1cc2c(s1)-c1ccc(Cl)cc1SC2,45,·,0.5,·,·,
Cc1ccc(C(=O)N/C(=C/c2ccco2)C(=O)NCc2ccco2)cc1,-1,·,-8.2,·,·,
CC(=O)NC1C(OCc2ccccc2)OC2COC(C)(C)OC2C1O (stereo not given),-11,1%,-3.5,-5,·,
COc1ccccc1N1C(=O)C2C(C(=O)c3ccccc3)=NN(c3ccccc3OC)C2C1=O (stereo not given),0,1%,-3.7,·,·,
COc1ccc(S(=O)(=O)N2CCOCC2)cc1NC(=O)C1COc2ccccc2O1 (stereo not given),-3,·,2.1,·,·,
CCOC(=O)CNc1c(-c2ccc(O)cc2)nc2ccccn12,-3,-8%,-23,-5,-2,
Cc1cc(C)c(NC(=O)CSc2nncn2-c2cccnc2)c(C)c1,-5,-7%,0.5,-4,·,
Cn1c(=O)c2c(nc(N3CCOCC3)n2CCNC2=NCCC2)n(C)c1=O,7,-7%,3.2,·,-24,
CCCn1nc(Oc2nc(NCC)nc(NCC)n2)ccc1=O,-4,-4%,0.2,-7,-8,
O=C1NC(c2ccccc2)(C(F)(F)F)SC2=CCCCCN12 (stereo not given),-3,-10%,2.1,3,-21,
COCc1c(Br)c(C)nc(OCC(=O)O)c1C#N,11,·,-1.8,3,-155,
CCOc1cc(C2NC(=O)NC2=O)ccc1O (stereo not given),-4,·,-4.3,·,·,
COc1ccc(S(=O)(=O)N2CCc3ccccc3C2)cc1,-3,-6%,0.7,5,·,
COc1ccc(NC(=O)c2cc(Br)c(Br)s2)cn1,15,1%,2.7,10,·,
CC(C)c1ccc(-c2nc3ccccc3s2)cc1,-6,4%,5.3,·,·,
CCOC(=O)N1CCN(C(=O)c2cc(Cl)c(Cl)cc2C(=O)O)CC1,-7,-6%,-0.4,1,-3,
O=C(NCc1ccc2c(c1)OCO2)C1CCC(=O)N1C1CCCC1 (stereo not given),-17,5%,-1.0,5,·,
CCn1c(SCC(=O)NC(C)(C)C)nnc1-c1ccncc1,-3,-2%,·,9,·,
CCOc1ccc(CN2CCNC(=O)C2CC(=O)NCC2CCOCC2)cc1 (stereo not given),-3,·,-1.0,·,·,
CCCCc1c(C)nc2c(OC)cccc2c1SCC(=O)O,-4,-4%,0.3,·,·,
O=C(COc1ccc(F)cc1)N1CCc2ccccc2C1,0,1%,0.6,-1,·,
COc1ccc(NC(=O)C(c2ccc(OC)cc2)N(C)C(=O)Cc2cccs2)cc1 (stereo not given),5,6%,-2.0,4,-33,

# Looked up one by one from the list above:
SMILES,Mtb betalactam,Mtb growth,RecA splice inh,Arbovirus inh,YopH PTP inh,others
O=C(NCc1ccc2c(c1)OCO2)C1CCC(=O)N1C1CCCC1 (stereo not given),-17,5%,-1.0,5,·,
COc1ccc(NC(=O)C(c2ccc(OC)cc2)N(C)C(=O)Cc2cccs2)cc1 (stereo not given),5,6%,-2.0,4,-33,
CCOC(=O)N1CCN(C(=O)c2cc(Cl)c(Cl)cc2C(=O)O)CC1,-7,-6%,-0.4,1,-3,

# (continued)
SMILES,Mtb betalactam,Mtb growth,RecA splice inh,Arbovirus inh,YopH PTP inh,others
CN(C)C(=O)Oc1cccc(NC(=O)N2CCOCC2)c1,-15,-7%,0.7,6,-20,
Cc1ccc(OCC(=O)NCCN2CCCC2)cc1,0,-6%,-0.5,0,10,
COc1cccc(C=NCCNC(=O)c2nonc2N)c1O,-2,-10%,·,-2,-60,
CCOC(=O)C1C(=O)OC2(CCCCC2)C1C(=O)OCC (stereo not given),-7,-5%,4.8,-5,-24,
O=C(c1ccc2c(c1)OCO2)N(c1ccccc1)C1C=CS(=O)(=O)C1 (stereo not given),-4,-1%,2.0,-4,-24,
CNC(=O)CN1C(=O)NC2(CCc3ccccc3C2)C1=O (stereo not given),-6,-3%,·,2,·,
Cc1ccc(-c2c[n+](CC(=O)c3ccc(Br)cc3)c3n2CCCCC3)cc1,100,22%,-6.0,-8,·,
Cc1ccc(OCC(=O)Nc2ccccc2-c2ccccc2)cc1,14,8%,11,-6,-30,
COc1ccc(N(C(=O)C2COc3ccccc3O2)C(C(=O)NC2CCCCC2)c2ccccc2)cc1OC (stereo not given),-1,12%,9.6,-7,-31,
Cc1ccc2nc(N(CCN(C)C)C(=O)c3cc(Cl)sc3Cl)sc2c1,-2,9%,0.4,10,-17,
Cn1c(Cc2ccccc2)nnc1SCC(=O)N1CCCCC1,3,-4%,2.8,-2,5,
CCCCCN(C(=O)CCC(=O)OCC(=O)N1CCCC(C)C1)c1c(N)n(CCCC)c(=O)[nH]c1=O (stereo not given),-14,·,5.6,·,·,
NC(CSS(=O)(=O)O)=NCCC12CC3CC(CC(O)(C3)C1)C2,-2,-3%,-3.9,-10,0,
Cc1cc(C(=O)Nc2nnc(C(F)(F)F)s2)cs1,23,24%,0.7,·,·,
CC(=O)Nc1nnc(SCC(=O)N2CCc3ccccc32)s1,-2,·,1.1,·,·,
CCCCn1c(N)c(N(CCOC)C(=O)COC(=O)Cc2cccc(OC)c2)c(=O)[nH]c1=O,-3,·,-1.5,·,·,
CCN1CCN(c2nc3c(C)cccn3c(=O)c2/C=C(\C#N)S(=O)(=O)c2ccc(Cl)cc2)CC1,-11,-14%,-95,·,·,
CCNC(=O)COC(=O)c1cc(-c2ccccc2)nn1-c1ccccc1,-3,-9%,-27,13,·,
O=C(CSc1nccc(-c2cccs2)n1)Nc1ccccc1,2,-7%,0.2,·,·,
N#Cc1cc([N+](=O)[O-])ccc1NC(=O)COC(=O)C1CC2CCCC(C1)C2=O (stereo not given),2,·,-0.6,·,·,
Nc1ccc2nc(-c3ccc(Cl)cc3)[nH]c2c1,1,8%,-21,-16,0,Arbovirus inh repeat=-12
COc1ccc(CC(=O)NCC(=O)NCc2cc(=O)n(C)c(=O)n2C)cc1,-2,·,-2.0,·,·,
COC(=O)C1=CN(c2cccc(Cl)c2)C=C(C(=O)OC)C1c1cccc(OC)c1,4,·,-3.9,·,·,

# Source: PubChem (several laboratories)

# An excerpt; count on the stated rates, not on these rows.
